High-throughput results: PubChem BioAssay, several laboratories
Calb FLC: affects C. albicans growth with fluconazole; C. albicans CaCi-2 (fluconazole-resistant clinical isolate) + fluconazole, Alamar Blue growth, 48 h; growth inhibition, % (concentration not given with the values); hit rate 0.57% among 300,000;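 active means most replicates above 75%; inconclusive means exactly half above 75%; inactive means most below 75%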;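 further: all wells also contain fluconazole at 8 µg/ml as a sub-toxic cotreatment; 0% = median of DMSO wells and 100% = median of geldanamycin control wells; wells of about 8 µL received 7.5 nL stock; the first replicate is given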
RanGTP-Imp inh: disruptors of Ran-importin-beta complex formation – biochemical, FRET, CFP-Ran, YFP-importin-beta, homogeneous, primary screen; cell-free CFP-Ran/YFP-importin-beta FRET ratio; inhibition, % (no concentration beside the values); hit rate 1.1% among 300,000;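 active means most replicates above 15%; inconclusive means exactly half above 15%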;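 further: 0% = DMSO wells and 100% = Ran loaded with GDP instead of GTP; wells of about 40 µL received 100 nL stock; the first replicate is given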
ALR inh: inhibitors of human sulfhydryl oxidase ALR | inhibition, % (concentration not given with the values) | purified ALR, DTT oxidation, H2O2 HRP-luminol luminescence | hit rate 3.8% among 290,000 | P55789;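 active means mean and each replicate at 75% or more; inconclusive means only one of the two met; inactive means neither met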;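 further: stock transfer was 7.5 nL into about 7.5 µL; 0% = neutral wells and 100% = wells with inactivated enzyme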
Beta2AR agonist: activates human beta-2 adrenergic receptor causing internalization; hit rate 0.43% among 340,000; AID 504454; Am2.2-beta2AR cells, FAP receptor internalization, flow cytometry; reference of the scale not given here; response, % (test concentration not listed);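 active means response above a set limit, near 3 SD of response in nonfluorescent compounds, cut at about 42% in these data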;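 further: stock transfer was 100 nL into about 11 µL; a reference agonist was the positive control; negative values mostly stem from fluorescent compounds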
HNF4A DNA FP: change in binding of human HNF4 alpha to DNA. hit rate 0.3% among 360,000. HNF4a-FITC DNA binding, fluorescence polarization, 1 h. activity change, % at 10 µM; in the data active means activity change above about 30%, passing the limit was not always enough;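 further: controls were the assay level and a saturating level of protein; the project sought stronger binding though the title names inhibitors; some compounds called inactive have numbers as strong as hits; positive values seem to mean higher polarization but the record does not say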
LANA-H2B inh: blocks KSHV LANA binding to histone H2A/H2B. hit rate 0.6% among 320,000. cell-free LANA-H2A/H2B peptide, fluorescence polarization. inhibition, % (no concentration beside the values). Q9QR71; in the data active means inhibition mostly above about 10%, no sharp cut-off; inactive means mostly below about 6.7%;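 further: stock transfer was 7.5 nL into about 10 µL; 0% = median of vehicle wells and 100% = median of positive control wells; one replicate is shown; the record names a cut of 25% in any replicate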
Target sequence (Q9QR71 whole entry, looked up): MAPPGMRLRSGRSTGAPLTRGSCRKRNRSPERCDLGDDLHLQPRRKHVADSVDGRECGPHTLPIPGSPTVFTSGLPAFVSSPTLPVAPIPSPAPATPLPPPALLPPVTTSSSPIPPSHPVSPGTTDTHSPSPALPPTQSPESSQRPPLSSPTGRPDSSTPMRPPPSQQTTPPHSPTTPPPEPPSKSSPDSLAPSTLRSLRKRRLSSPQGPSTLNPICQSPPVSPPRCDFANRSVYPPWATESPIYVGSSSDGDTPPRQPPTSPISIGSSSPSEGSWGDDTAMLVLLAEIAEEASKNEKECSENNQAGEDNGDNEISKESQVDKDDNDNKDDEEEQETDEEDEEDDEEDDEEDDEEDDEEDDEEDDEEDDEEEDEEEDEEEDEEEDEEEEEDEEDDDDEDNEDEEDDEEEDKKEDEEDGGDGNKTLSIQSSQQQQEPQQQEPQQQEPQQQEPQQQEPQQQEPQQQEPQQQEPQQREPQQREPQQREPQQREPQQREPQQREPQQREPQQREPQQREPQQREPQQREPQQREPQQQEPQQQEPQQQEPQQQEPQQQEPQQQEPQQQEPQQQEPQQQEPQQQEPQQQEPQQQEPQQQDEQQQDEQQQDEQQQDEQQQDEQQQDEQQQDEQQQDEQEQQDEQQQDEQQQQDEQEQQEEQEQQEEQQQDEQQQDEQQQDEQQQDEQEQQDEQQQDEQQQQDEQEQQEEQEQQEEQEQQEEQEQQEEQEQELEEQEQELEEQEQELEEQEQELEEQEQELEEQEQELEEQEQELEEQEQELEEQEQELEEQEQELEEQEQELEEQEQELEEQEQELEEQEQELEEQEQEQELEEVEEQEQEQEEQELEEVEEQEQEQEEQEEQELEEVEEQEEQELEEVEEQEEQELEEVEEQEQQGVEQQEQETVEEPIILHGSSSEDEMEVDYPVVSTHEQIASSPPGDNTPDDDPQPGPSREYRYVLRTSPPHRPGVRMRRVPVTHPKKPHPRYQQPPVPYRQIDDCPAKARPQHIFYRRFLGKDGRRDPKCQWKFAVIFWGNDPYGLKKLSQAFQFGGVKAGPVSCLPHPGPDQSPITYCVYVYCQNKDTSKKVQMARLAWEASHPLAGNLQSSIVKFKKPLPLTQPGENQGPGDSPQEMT
Vif TR-FRET: inhibitors of Vif binding to APOBEC3G peptide, primary screen, biochemical, TR-FRET, GST-Vif 1-94, biotin-A3G peptide, dose response retest (AID 1117319); TR-FRET GST-Vif / biotin-A3G peptide binding; higher % means a stronger effect; test concentration not given here; strong numbers were not always called active; one-dose inhibition, %; IC50 in µM for titrated hits; hit rate 0.57% among 260,000;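 active means above the screen mean plus three standard deviations and confirmed in dose response; inconclusive means results disagree or hit not tested in dose response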;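 further: Vif residues 1-94 fused to GST binding biotinylated APOBEC3G peptide 110-148; 0% = full assay without inhibitor and 100% = GST in place of GST-Vif; retest series ran down from 100 µM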
* hit, by the source's call; ? = inconclusive; nt = no result given.

[1] O=C(CCCN1C(=O)/C(=C\c2ccco2)SC1=S)Nc1ccc(O)cc1C(=O)O
[2] CC1(c2ccc3ccccc3c2)NC(=O)N(CC(=O)NCC(C)(C)N2CCOCC2)C1=O (centres undefined)
[3] CCOc1ccccc1OCC(=O)Nc1ccc2[nH]c(=O)[nH]c2c1
[4] COC(=O)C1=C(C)NC(=O)NC1c1ccccc1Cl (centres undefined)
[5] COc1ccc(-c2cc(C)no2)cc1S(=O)(=O)N(C)c1ccc(C)c(C)c1
[6] CC(C)(C)NC(=O)c1ccnc(C(C)(C)C)c1

| entry no. | 1 | 2 | 3 | 4 | 5 | 6 |
| --- | --- | --- | --- | --- | --- | --- |
| Calb FLC | -6 | 2 | nt | -3 | 52 | 14 |
| RanGTP-Imp inh | -3.1 | -4.0 | nt | 1.7 | 3.3 | -0.2 |
| ALR inh | 20 | nt | nt | -22 | 1 | -4 |
| Beta2AR agonist | -3 | 5 | 6 | 1 | -15 | 0 |
| HNF4A DNA FP | -39 | -1.2 | -4.2 | -0.5 | 1.2 | -1.1 |
| LANA-H2B inh | 0.4 | nt | -0.9 | -5.3 | -0.9 | -0.7 |
| Vif TR-FRET | ? | 0% | 4% | nt | nt | 2% |

[7] NC(=O)C1CCN(C(=O)OCc2ccccc2)CC1
[8] CCOc1ccc(CN(CCO)CCO)cc1C(=O)OC
[9] COc1ccc(S(=O)(=O)N2CCN(CC(=O)Nc3cc(C(F)(F)F)ccc3Cl)CC2)cc1
[10] CS(=O)(=O)c1cccc(C(=O)OCC(=O)NC(=O)Nc2ccccc2F)c1
[11] CCC(C)N(C(=O)COC(=O)c1cn(CC)c2nc(C)ccc2c1=O)C1CCS(=O)(=O)C1 (centres undefined)
[12] Cc1ccc(Cn2c(NCCCn3ccnc3)nc3c2c(=O)n(C)c(=O)n3C)cc1

| entry no. | 7 | 8 | 9 | 10 | 11 | 12 |
| --- | --- | --- | --- | --- | --- | --- |
| Calb FLC | 3 | -5 | 5 | nt | 4 | 4 |
| RanGTP-Imp inh | -2.2 | -0.5 | -3.9 | nt | 2.3 | -0.8 |
| ALR inh | 6 | -1 | 25 | 1 | -6 | 13 |
| Beta2AR agonist | 0 | 5 | 3 | -3 | 3 | -4 |
| HNF4A DNA FP | 1.7 | -0.8 | -1.7 | 1.5 | -3.5 | -0.7 |
| LANA-H2B inh | 0.7 | 1.2 | 1.1 | 0.0 | -1.3 | -5.4 |
| Vif TR-FRET | ? | -4% | -2% | -10% | nt | -3% |

[13] Cc1ncc(CN2CCN(C(C)C)C(CCO)C2)s1 (centres undefined)
[14] C=CCn1c(SCC(=O)NC(=O)c2cccn2C)nc2ccccc2c1=O
[15] Nc1nn2cc(-c3ccccc3)nc2c2ccccc12
[16] Cn1c(SCC(=O)Nc2ccc3nc(SCC(=O)N4CCCC4)sc3c2)nnc1-c1ccccc1
[17] COc1ccc(CNC(C)C(=O)Nc2ccc3ccccc3c2)cc1OC (centres undefined)
[18] CC1CCCN(c2ccc(C(=O)NCc3ccc4c(c3)OCO4)cc2[N+](=O)[O-])C1 (centres undefined)

| entry no. | 13 | 14 | 15 | 16 | 17 | 18 |
| --- | --- | --- | --- | --- | --- | --- |
| Calb FLC | 1 | -19 | 18 | -6 | 7 | -26 |
| RanGTP-Imp inh | -1.4 | 3.9 | 3.9 | 2.8 | 2.7 | -1.1 |
| ALR inh | -5 | -12 | 95* | nt | -17 | -7 |
| Beta2AR agonist | 1 | 5 | -3 | nt | 1 | -9 |
| HNF4A DNA FP | -5.7 | 7.1 | 4.6 | nt | -3.6 | -2.9 |
| LANA-H2B inh | 2.1 | -3.8 | -0.2 | 3.1 | 3.2 | 1.4 |
| Vif TR-FRET | 12% | -12% | -10% | 19% | nt | 5% |

Arranged by heavy-atom count (descending): some entries from above
[16] Cn1c(SCC(=O)Nc2ccc3nc(SCC(=O)N4CCCC4)sc3c2)nnc1-c1ccccc1
[9] COc1ccc(S(=O)(=O)N2CCN(CC(=O)Nc3cc(C(F)(F)F)ccc3Cl)CC2)cc1
[12] Cc1ccc(Cn2c(NCCCn3ccnc3)nc3c2c(=O)n(C)c(=O)n3C)cc1
[18] CC1CCCN(c2ccc(C(=O)NCc3ccc4c(c3)OCO4)cc2[N+](=O)[O-])C1 (centres undefined)
[5] COc1ccc(-c2cc(C)no2)cc1S(=O)(=O)N(C)c1ccc(C)c(C)c1
[3] CCOc1ccccc1OCC(=O)Nc1ccc2[nH]c(=O)[nH]c2c1
[8] CCOc1ccc(CN(CCO)CCO)cc1C(=O)OC
[15] Nc1nn2cc(-c3ccccc3)nc2c2ccccc12

| entry no. | 16 | 9 | 12 | 18 | 5 | 3 | 8 | 15 |
| --- | --- | --- | --- | --- | --- | --- | --- | --- |
| Calb FLC | -6 | 5 | 4 | -26 | 52 | nt | -5 | 18 |
| RanGTP-Imp inh | 2.8 | -3.9 | -0.8 | -1.1 | 3.3 | nt | -0.5 | 3.9 |
| ALR inh | nt | 25 | 13 | -7 | 1 | nt | -1 | 95* |
| Beta2AR agonist | nt | 3 | -4 | -9 | -15 | 6 | 5 | -3 |
| HNF4A DNA FP | nt | -1.7 | -0.7 | -2.9 | 1.2 | -4.2 | -0.8 | 4.6 |
| LANA-H2B inh | 3.1 | 1.1 | -5.4 | 1.4 | -0.9 | -0.9 | 1.2 | -0.2 |
| Vif TR-FRET | 19% | -2% | -3% | 5% | nt | 4% | -4% | -10% |

[7] NC(=O)C1CCN(C(=O)OCc2ccccc2)CC1
[6] CC(C)(C)NC(=O)c1ccnc(C(C)(C)C)c1

| entry no. | 7 | 6 |
| --- | --- | --- |
| Calb FLC | 3 | 14 |
| RanGTP-Imp inh | -2.2 | -0.2 |
| ALR inh | 6 | -4 |
| Beta2AR agonist | 0 | 0 |
| HNF4A DNA FP | 1.7 | -1.1 |
| LANA-H2B inh | 0.7 | -0.7 |
| Vif TR-FRET | ? | 2% |

(continued)
[19] CC1CCN(c2oc(-c3cccc4ccccc34)nc2C#N)CC1
[20] CC(=O)Nc1ccc(NC(=O)CC(NC(=O)c2ccccc2)c2ccccc2)cc1 (centres undefined)
[21] O=C(Cn1ccc(=O)[nH]c1=O)Nc1ccc(O)c([N+](=O)[O-])c1
[22] O=C(O)CSc1ccc(S(=O)(=O)N2CCCC2)cn1
[23] Cn1c(Cc2cccs2)nnc1SCC(=O)N1CCc2ccccc21
[24] CC(C)Sc1nnc(-c2c[nH]c3ccccc23)n1C

| entry no. | 19 | 20 | 21 | 22 | 23 | 24 |
| --- | --- | --- | --- | --- | --- | --- |
| Calb FLC | 0 | nt | nt | nt | -7 | -1 |
| RanGTP-Imp inh | -3.8 | 6.3 | nt | nt | -2.5 | 13 |
| ALR inh | -6 | 25 | nt | nt | 0 | -19 |
| Beta2AR agonist | -2 | 6 | 1 | 0 | -17 | 11 |
| HNF4A DNA FP | -2.1 | -1.1 | -7.3 | -3.4 | -0.2 | -2.2 |
| LANA-H2B inh | 1.9 | 2.6 | nt | nt | -1.4 | 2.0 |
| Vif TR-FRET | 3% | 1% | 20% | -16% | -2% | ? |

[25] Cc1nc(NC2CCCC2)sc1C(=O)N(C)C
[26] C=C(Br)Cn1c(CCCC)nc2ccccc21
[27] O=C(NCc1ccco1)c1cc(-c2cccs2)on1
[28] O=c1oc(-c2ccc(F)cc2)nc2ccsc12
[29] Cc1ccc(NC(=S)N(CCN(C)C)Cc2cc3cccc(C)c3[nH]c2=O)cc1
[30] COCCOC(=O)c1c(NC(=O)CNCc2ccco2)sc(C(N)=O)c1C

| entry no. | 25 | 26 | 27 | 28 | 29 | 30 |
| --- | --- | --- | --- | --- | --- | --- |
| Calb FLC | -3 | -3 | -26 | -10 | -27 | 5 |
| RanGTP-Imp inh | ? | 2.1 | -1.0 | -4.1 | 0.8 | -1.0 |
| ALR inh | -27 | -5 | 8 | 83* | 3 | -1 |
| Beta2AR agonist | 5 | -7 | -11 | -12 | -1 | 4 |
| HNF4A DNA FP | 1.8 | -0.8 | 1.6 | 5.6 | 2.7 | 0.0 |
| LANA-H2B inh | 4.7 | 3.2 | 0.6 | -1.6 | -4.0 | -2.5 |
| Vif TR-FRET | -5% | -7% | 4% | 3% | 1% | 16% |

[31] CC(C)c1ccc(OCC(=O)N(Cc2ccccc2)c2ccccn2)cc1
[32] CCOc1cc(C2C3=C(CC(C)(C)CC3=O)Nc3n[nH]c(C)c32)ccc1O (centres undefined)
[33] COc1ccc(CNC(=O)COC(=O)c2ccc3c(c2)OCCO3)cc1
[34] Cc1cc(F)ccc1S(=O)(=O)Nc1ccccc1C(=O)NCc1cccnc1

| entry no. | 31 | 32 | 33 | 34 |
| --- | --- | --- | --- | --- |
| Calb FLC | 27 | 55 | 11 | 28 |
| RanGTP-Imp inh | -2.7 | 3.8 | 0.0 | 0.6 |
| ALR inh | -7 | 57 | -3 | 16 |
| Beta2AR agonist | 0 | -9 | 2 | 5 |
| HNF4A DNA FP | 2.3 | 0.0 | 1.6 | 3.0 |
| LANA-H2B inh | -7.7 | -5.8 | 1.7 | 1.6 |
| Vif TR-FRET | 5% | nt | -25% | nt |
